UUG fidelity: modulators of start codon recognition fidelity in yeast; activity score, % at 18.7 µM; AID 602363; 0.13% of 350,000 active; S. cerevisiae UUG-firefly luciferase reporter, luminescence/redox ratio;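 active = replicate mean at a twofold rise or more, about +100% in these data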;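 note: firefly luciferase made from a UUG start codon reports start codon fidelity; reporter light over untreated wells divided by growth signal over untreated wells; some hits fall short of that in this replicate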
Rce1 inh: yeast Ras-converting enzyme inhibition | AID 2563 | 0.27% of 290,000 active | yeast membranes, quenched prenylated peptide cleavage fluorescence | calls only;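 active = fall in fluorescence gain of 50% or more versus controls, with final raw signal at or below 3038400; inconclusive = same 50% fall but final raw signal above 3038400; inactive = fall in fluorescence gain under 50%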;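 note: plate controls were neutral control wells for no effect and wells lacking membranes for full effect; tested at 10 µM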
Target sequence (Q03530 whole entry, looked up): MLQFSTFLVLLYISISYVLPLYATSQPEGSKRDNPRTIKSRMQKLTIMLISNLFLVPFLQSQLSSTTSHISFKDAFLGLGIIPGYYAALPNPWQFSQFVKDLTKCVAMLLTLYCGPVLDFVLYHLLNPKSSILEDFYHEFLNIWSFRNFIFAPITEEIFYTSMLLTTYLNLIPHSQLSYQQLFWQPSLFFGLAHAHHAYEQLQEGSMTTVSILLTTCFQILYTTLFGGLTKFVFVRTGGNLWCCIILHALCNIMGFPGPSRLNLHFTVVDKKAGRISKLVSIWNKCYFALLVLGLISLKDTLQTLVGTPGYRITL
PABP polyA inh: blocks human PABP binding to poly(A) RNA; P11940; fluorescence polarization; inhibition, % at 35 µM; 1% of 290,000 active;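 active = 50% or more with normal probe brightness, or confirmed in later tests; inconclusive = above 50% with abnormal brightness, or retests that disagree; inactive = below 50% or failed in later tests; about a fifth of its hits are not listed in these tables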;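 note: calls also rest on retests at 20 µM and on dose response follow-up; controls were probe without protein and protein plus probe with vehicle; some compounds called inactive have numbers as strong as hits; many hits fall short of the cut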
CSC inhib: cancer stem cell inhibition | cancer stem cell-like cells viability, luminescence | 1.1% of 300,000 active | inhibition, % at 7.5 µM | AID 2717;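 active = mean at 75% or more and at least half the replicates too; inconclusive = mean and replicates disagree; tested in HMLE shEcad cells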;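 note: 0% = median of negative and 100% = median of positive control wells; the first replicate is given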
eIF4H inh: inhibitors of RNA binding by human eIF4H | eIF4H fluorescence polarization binding assay | inhibition, % at 35 µM | 0.94% of 290,000 active;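 active = 50% or more with normal probe brightness, or confirmed in later tests; inconclusive = above 50% with abnormal brightness, or retests that disagree; inactive = below 50% or failed in later tests; about a fifth of its hits are not listed in these tables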;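 note: calls also rest on retests at 20 µM and on dose response follow-up; 0% = protein and probe with vehicle and 100% = probe without protein; strong numbers were not always called active; many hits fall short of the cut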
MT1-MMP act inh: MT1-MMP (human) activation inhibition. P50281. AID 651647. HT1080 RFP-PRO-GFP cells, GFP/RFP ratio fluorescence, overnight; percent of plate control window, DMSO zero. GFP/RFP ratio change, % at 20 µM. 0.061% of 360,000 active;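 active = GFP/RFP ratio change of at least 30% with cell ATP level not reduced by more than half and red fluorescence within 50% of control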; note: strong numbers were not always called active
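Assay system: HT1080 cells carrying an RFP-PRO-GFP reporter | Dosing: Single dose of 20 µM compound, 1% DMSO final | Incubation: Cells overnight before dosing, compound overnight, 37 °C, 5% CO2 | Evaluation: GFP/RFP fluorescence ratio | Control set: DMSO and RFP-L50D-GFP cell wells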
HIV Env fusion: HIV envelope-mediated fusion inhibition | 1.1% of 360,000 active | HeLa-JRFL Env/CEM21 cell fusion, luciferase | inhibition, % at 12.3 µM;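 active = mean replicate inhibition score of at least 50 and every replicate individually at or above 50; inconclusive = only one of the two criteria met; inactive = mean below 50 and not all replicates reaching 50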;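 note: 0% = plate neutral controls and 100% = maraviroc near 300 nM; one replicate is shown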
MT1-MMP act inh RFP: second read-out of MT1-MMP act inh, no call of its own (marks repeat the call); RFP signal change, %; measured here: RFP expression control read;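 0 = vehicle wells; hits needed this value within 50% of zero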
Active calls of the source: *; i = inactive; ? = inconclusive; · = not tested or not shown.

SMILES	UUG fidelity	Rce1 inh	PABP polyA inh	CSC inhib	eIF4H inh	MT1-MMP act inh	MT1-MMP act inh RFP	HIV Env fusion
CN(C(=O)CCNC(=O)Cn1cnc2ccccc2c1=O)c1ccc(F)cc1	1.1	i	4.8	-7.4	-5.1	1.0	1.5	-7.0
COc1ccc(NS(=O)(=O)c2ccc(C)c(C(=O)NCc3cccnc3)c2)cc1	-8.3	i	-8.1	·	-8.4	0.1	-4.1	-6.8
CCn1nc(CC(=O)Nc2ccc(-n3cnnn3)c(OC)c2)c2ccccc2c1=O	-17.9	i	-0.7	15.6	5.5	4.9	5.8	-15.6
Cc1ccc(C)c(NS(=O)(=O)c2cc(C(=O)NCc3ccccn3)ccc2C)c1	-23.2	i	1.8	-14.1	-7.9	2.0	-3.8	·
Cc1ccsc1/C=N/NC(=O)Nc1ccccc1	·	i	-0.5	-12.6	3.3	-1.5	-1.4	-23.7
c1ccc(Cc2nnc3sc(C4COc5ccccc5O4)nn23)cc1 (stereo not drawn)	-15.0	i	-5.4	4.8	-3.2	4.2	2.4	·
O=C(Nc1ccc(C(=O)N2CCCC2)cc1)Nc1ccc(Cl)cc1Cl	·	i	-6.8	-1.1	1.9	5.9	8.7	17.7
CCc1cc2c(SCC(=O)NC3CCCC3)ncnc2s1	-4.9	·	·	·	·	3.0	-1.2	-20.3
CCN(CC)CCOC(=O)c1ccccc1Br	·	i	3.4	·	2.4	1.8	-2.7	-0.5
COc1ccc(C(CC(=O)NCCCN2CCOCC2)NS(=O)(=O)c2ccc(C)cc2)cc1 (stereo not drawn)	-14.3	i	-8.1	-11.2	2.6	-0.2	1.9	·
CCOC(=O)C1=NN(C(=O)c2ccccc2)C(O)(c2ccc(C)cc2)C1 (stereo not drawn)	·	i	-10.9	0.1	16.9	-15.7	6.2	-8.8
CCOc1ccc(C(=O)SC2=NCCS2)cc1	-25.1	i	-4.2	·	-15.4	3.9	7.0	·
O=C(CCCn1c(=O)[nH]c2cc(Cl)ccc2c1=O)NCCC1=CCCCC1	-9.7	i	7.6	-18.1	-8.6	3.4	3.1	-18.5
Cc1ccc(S(=O)(=O)N2CCCCC2)cc1NC(=O)c1cc2ccccc2o1	-14.7	·	·	-10.7	·	-0.8	-4.0	?
Cc1cc(=O)oc2cc(OCC(=O)NC3CCCC3)ccc12	-2.7	·	6.5	-4.9	3.0	-1.9	0.2	·
O=C(COc1cccnc1[N+](=O)[O-])Nc1cc(Cl)ccc1Cl	-21.9	·	·	-11.8	·	-1.9	-0.4	-24.6
CC(C)N1CC2(CC(c3ccccc3F)=NO2)CN1C(=O)c1ccco1 (stereo not drawn)	-12.3	·	·	·	·	3.8	5.1	-4.4
OC(c1ccc2c(c1)OCO2)c1ncc(-c2ccc(Cl)cc2)[nH]1 (stereo not drawn)	-34.1	·	·	·	·	0.9	-2.4	11.8
CN(C)CC(=O)c1c(N)n(Cc2ccccc2)c(=O)n(C)c1=O	·	i	-2.9	0.9	-4.4	0.8	4.0	-19.2
CCC(C)C(Nc1ncnc2scc(-c3ccccc3)c12)C(=O)O (stereo not drawn)	-0.7	·	6.8	-8.3	2.1	-4.3	0.7	4.7
CS(=O)(=O)N1CCc2cc(C(=O)N3CCN(c4ccccc4F)CC3)ccc21	-2.4	i	1.6	-10.5	6.7	2.2	2.8	0.4
CN1CCN(NC(=O)Nc2cc(Cl)cc(Cl)c2)CC1	-8.2	i	-2.6	10.7	23.8	1.9	-3.7	-13.5
O=C(CSC1=NCCN1)C1COc2ccccc2O1 (stereo not drawn)	-4.7	i	6.3	-12.1	1.0	2.4	0.7	14.9
O=C(CN1CCOCC1)Nc1cccc(Br)c1	-10.9	i	5.5	-7.9	-4.8	0.9	-4.0	7.3
O=C(CCS(=O)(=O)c1ccccc1)Nc1ccccc1N1CCOCC1	·	i	7.4	-4.9	4.5	0.3	3.2	-10.1

Later entries
SMILES	UUG fidelity	Rce1 inh	PABP polyA inh	CSC inhib	eIF4H inh	MT1-MMP act inh	MT1-MMP act inh RFP	HIV Env fusion
C=CCn1c(SCC(=O)Nc2cc(C)on2)nnc1-c1ccncc1	-13.8	·	·	·	·	-1.4	3.8	16.3
CCCNc1c(NC(=O)c2cccs2)c(=O)oc2ccccc12	-19.7	i	1.8	8.6	-8.5	0.2	0.2	8.5
O=c1c2[nH]c3cccc(Cl)c3c2ncn1CCN1CCCCC1	·	i	-0.4	-13.0	-3.6	5.3	-1.0	·
Cn1nnc(NCc2cc(Br)ccc2OCc2ccccc2F)n1	·	i	9.7	1.2	-8.0	-1.6	-12.6	-16.2
CN1C(=O)/C(=C2/C=Cc3ccccc3N2CCCS(=O)(=O)O)SC1=S	21.3	i	16.6	-4.7	-6.5	41.8*	4.6*	·
Cc1ccc(CNC(=O)c2ccc3c(c2)S(=O)(=O)c2ccccc2C3=O)cc1	-13.3	i	·	6.8	·	4.6	1.9	2.3
Cn1nnc2cc(C(=O)NC3CC3)ccc21	-9.4	i	6.3	2.7	0.8	-2.2	1.9	·
CC(NC(=O)CN(C)Cc1ccc(Br)cc1)c1ccccc1 (stereo not drawn)	1.1	i	-4.6	-6.3	-0.4	4.0	6.1	14.0
CC(C)(C)c1nc(NCCN2CCOCC2)c2nnn(Cc3ccccc3Cl)c2n1	·	i	-0.8	37.1	-14.8	-11.9	-20.0	·
[N-]=[N+]=NC[C@H](Cc1ccccc1)N1CC[C@@H](OCc2ccccc2)CCC1=O	-1.9	i	3.8	-9.6	5.2	-1.5	-0.9	19.3
CCOC(=O)C(C(=O)OCC)C1OC(=O)c2cc3c(cc21)C(=O)OC3C(C(=O)OCC)C(=O)OCC (stereo not drawn)	·	i	4.7	-3.8	-6.7	0.8	-0.7	-21.0
CC1CCCC(C)N1C(=O)COC(=O)CSc1ccc([N+](=O)[O-])cc1 (stereo not drawn)	-14.7	·	·	·	·	-0.3	4.2	-50.5
CC(=O)N1CCOc2ccc(S(=O)(=O)N3CCC(C(=O)Nc4ccc(C)cc4)CC3)cc21	-5.3	i	-1.7	-8.2	3.8	0.5	-6.3	10.4
COc1ccc(S(=O)(=O)N2CCOCC2)cc1NC(=O)CCc1nc2ccccc2c(=O)[nH]1	-9.8	i	2.8	5.3	-3.7	-2.0	3.0	-6.6
COc1ccccc1N1CCN(C(=O)C(=O)c2cn(CC(=O)N3CCOCC3)c3ccccc23)CC1	-2.4	i	0.5	-2.3	-5.1	3.3	-0.6	6.7
CN(C)c1ccc(NC(=O)c2cn(-c3ccccc3)nc2-c2cccs2)cc1	-29.1	i	8.1	-3.3	-2.5	10.3	-0.7	-144.7
COc1ccc(S(=O)(=O)N2CCCCCC2)cc1NC(=O)Cc1cccc(C(F)(F)F)c1	4.9	·	·	·	·	1.7	-3.9	19.3
COc1cccc2cc(C(=O)Nc3ccccc3C(=O)N3CCOCC3)oc12	4.8	i	-3.3	-9.2	6.5	-4.0	-0.8	1.4
Cc1cccc(CCNS(=O)(=O)c2ccc3c(c2)oc(=O)n3C)c1	9.1	i	-4.5	-3.9	-3.4	-8.0	2.0	-46.9
O=C(Nc1ccccc1F)N1CCc2ccccc2C1	-4.3	i	4.5	-0.9	-10.9	-0.9	0.9	-57.2
Cc1cc2c(ccc3c2no[n+]3[O-])nn1	-20.6	i	-12.9	4.6	-7.1	-5.3	-0.5	·
Cc1nn(-c2ccccc2)c(C)c1/C=N\NS(=O)(=O)c1ccc(Cl)cc1	-4.4	i	-7.9	-5.1	-4.1	3.3	1.4	·
Cc1ccc(N2CC(C(=O)Nc3ccc(S(=O)(=O)N4CCCC4)cc3)CC2=O)cc1C (stereo not drawn)	-15.5	i	7.9	·	5.6	-3.5	-1.8	-5.1
CN(C(=O)/C=C/c1ccc([N+](=O)[O-])s1)c1ccccc1	7.0	i	-3.9	6.0	-5.8	-12.9	-4.0	-1.1
O=[n+]1c2c(n([O-])c3c1CCCC3)CCCCC2	-11.8	i	-0.2	-3.8	0.6	-1.0	1.6	·

A section of the results above:
SMILES	UUG fidelity	Rce1 inh	PABP polyA inh	CSC inhib	eIF4H inh	MT1-MMP act inh	MT1-MMP act inh RFP	HIV Env fusion
O=C(CCCn1c(=O)[nH]c2cc(Cl)ccc2c1=O)NCCC1=CCCCC1	-9.7	i	7.6	-18.1	-8.6	3.4	3.1	-18.5
Cc1ccc(S(=O)(=O)N2CCCCC2)cc1NC(=O)c1cc2ccccc2o1	-14.7	·	·	-10.7	·	-0.8	-4.0	?

Next section.
SMILES	UUG fidelity	Rce1 inh	PABP polyA inh	CSC inhib	eIF4H inh	MT1-MMP act inh	MT1-MMP act inh RFP	HIV Env fusion
O=C(N[C@@H]1CCC(=O)N(CC[C@H](Oc2ccccc2)c2ccccc2)CC1)OCc1ccccc1	-4.4	i	19.2	6.3	-3.8	3.7	-7.2	-14.2
CN(C)CCCN(C(=O)c1cccs1)c1nc(-c2ccccc2)cs1	-12.1	·	2.7	2.3	2.6	-1.8	-1.0	-48.5
CCN(CC(=O)Nc1ccc(NC(C)=O)cc1)C(=O)/C=C/c1ccco1	-1.0	i	·	-8.8	·	8.7	0.1	-28.3
CC1Cc2ccccc2N1C(=O)COC(=O)c1c2c(nc3ccccc13)CCCCC2 (stereo not drawn)	22.9	i	6.2	-12.3	-7.3	-8.9	-11.4	27.0
COc1ccc(Cl)cc1NC(=O)NCc1cccnc1	-17.2	i	6.7	7.0	29.0	2.7	-2.6	0.9
O=C(OCC#CCSc1nnc(-c2ccccc2)o1)c1ccco1	-9.0	i	-2.9	5.3	-0.2	4.4	2.0	-59.0
Cc1ccc(N2C(=O)C3C(c4ccccc4)(C2=O)C3(c2ccccc2)c2ccccc2)cc1 (stereo not drawn)	2.7	i	-9.3	3.7	-1.1	-13.1	-10.4	46.0
C=C(C)CN1CCN(S(=O)(=O)c2ccc(C)c(N(C)S(=O)(=O)c3ccc(C)cc3)c2C)CC1	·	i	-6.2	10.0	-9.5	-10.9	-13.3	32.7
COc1ccc(N(C)S(=O)(=O)c2cccc(C(=O)NCC(c3cccs3)N(C)C)c2)cc1 (stereo not drawn)	·	i	·	-7.1	·	-4.0	-4.1	-8.9
CC1=C(C(=O)N(C)C)CC(CC(=O)NCCCN(C)C)C(=O)N1Cc1ccc(C(C)(C)C)cc1 (stereo not drawn)	-8.2	·	·	·	·	2.1	1.1	-40.8
O=C(NCc1nc2ccccc2[nH]1)c1ccco1	-4.6	i	0.9	-6.7	-7.2	-6.9	-8.1	·
CCOC(=O)C1CCCN(S(=O)(=O)c2ccc3c4c(cccc24)C(=O)N3CC)C1 (stereo not drawn)	-1.5	·	·	-15.0	·	-1.4	-16.3	-4.9
CC1CCN(S(=O)(=O)c2cn(CC(=O)Nc3ccc(OC(F)(F)F)cc3)cn2)CC1	-16.3	i	-7.0	11.1	-6.9	4.3	4.5	2.5
CCC1C(=O)C[C@H]2CCN3C(=O)CCCC1C23 (stereo partly drawn)	-5.7	·	·	·	·	2.0	2.7	-80.1
Cn1c(N)c(C(=O)COC(=O)C2CC(O)CN2S(=O)(=O)c2ccc(Cl)cc2)c(=O)n(C)c1=O (stereo not drawn)	-7.6	i	6.3	-6.6	-7.1	0.0	1.1	17.9
CCOC(=O)c1ccc(NCc2nc3ccccc3n2C)cc1	·	i	-14.9	-19.4	1.1	2.3	1.9	-126.4
COc1ccc(F)cc1S(=O)(=O)NCCCn1ccnc1	-6.6	i	-9.7	-10.2	-4.4	-1.1	0.9	1.0
Cc1nc(C)c(-c2csc(Nc3ccc(Cl)cn3)n2)s1	-26.1	·	·	·	·	2.4	-27.4	-22.2
CC(C)n1c(=O)c2ccccc2n1Cc1cn(-c2ccccc2)nn1	-6.8	·	·	·	·	1.3	0.8	-13.8
CC1CCCCN1C(=O)Cn1c(=O)n(-c2ccc(F)cc2)c(=O)c2sccc21 (stereo not drawn)	-14.3	i	5.3	4.2	-5.4	-4.0	-1.8	8.7

Bioassay records: PubChem, several laboratories
